Source: PubChem (National Center for Advancing Translational Sciences (NCATS))
Lassa entry inh = qHTS for Inhibitors of binding or entry into cells for Lassa Virus. Lassa virus pseudotype entry inhibition, cell reporter; control for the full effect not named in the record. Potency, µM (titrated, usually from 37.9 µM), for the others: at the top dose activity change, negative = inhibition, most hits filed as inhibitors. 1.2% of 300,000 active. AID 540256, 2011; active means well fitted inhibition curve with a large enough effect; inconclusive means small, poorly fitted or top-dose-only effect, or effect the other way; inactive means flat fitted curve, though single readings scatter; tested in HEK293 cells; further: on the % scale 0 is the no-effect control and ±100 the full control effect; nearly all actives have a fitted effect of over 50% in size; luciferase read-out
SARS PLP yeast = qHTS of Yeast-based Assay for SARS-CoV PLP. S. cerevisiae expressing SARS-CoV PLpro, growth rescue; control for the full effect not named in the record. Potency, µM (series often up to 32.9 µM), inactives show at the highest dose activity, positive = growth rescue. 0.19% of 330,000 active. AID 485353, 2010; active means well fitted rising curve with a large enough effect; inconclusive means small, poorly fitted or top-dose-only effect; inactive means no such curve, though single readings can be large or run the other way; further: 0% is about no effect; nearly all actives have a fitted effect of over 55% in size; growth read by luminescence after 48 h
RE007 growth inh = qHTS Assay for Inhibitors of the HIV-1 protein Vpr | S. pombe RE007 Vpr strain, BacTiter-Glo ATP luminescence, 24 h; control for the full effect not named in the record | Potency, µM (top dose mostly 92.2 µM), inactives show top-dose activity change, negative = less growth | 0.21% of 360,000 active; active = well fitted falling curve with a large enough effect; inconclusive = small, poorly fitted or top-dose-only effect; inactive = no such curve, though single readings can be large or run the other way;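 further: on the % scale 0 is the no-effect control and ±100 the full control effect; nearly all actives have a fitted effect of over 50% in size; the assay follows cell death caused by Vpr and the record does not say whether a fall means rescue or toxicity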
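Fission yeast strain RE007, carrying one chromosomally integrated HIV-1 vpr copy, was seeded at OD 0.01 in PMG+AL medium with 23 nL pinned compound. After 24 h at 30 °C and 99% humidity, viability was read by BacTiter-Glo luminescence.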
NS1 inh = qHTS Assay for Inhibitors of Influenza NS1 Protein Function | S. cerevisiae slowed by influenza A NS1, growth recovery by OD600 | Potency, µM (titrated, usually from 46.1 µM), for the others: top-dose activity, positive = more growth | 0.4% of 270,000 active; active means well fitted rising curve with a large enough effect; inconclusive means small, poorly fitted or top-dose-only effect; inactive means no such curve, though single readings can be large or run the other way; further: nearly all actives have a fitted effect of over 50% in size
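Read-out: OD600 growth recovery of NS1-expressing budding yeast. Cells grown overnight at 30C in -URA glucose medium, washed, resuspended and diluted 1:100 in 2% galactose assay medium, pH 6.0. Same strain lacking NS1 served as positive control.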
StopGo reporter = High Throughput Screening for Foot and Mouth Disease Virus Antivirals | Potency, µM (series often up to 57.9 µM), for inactives: at the top dose signal change, negative = less light | 1.2% of 410,000 active | human cells with a luciferase reporter of 2A StopGo recoding; control for the full effect not named in the record | AID 1159524, 2015; active = well fitted falling curve with a large enough effect; inconclusive = small, poorly fitted or top-dose-only effect; inactive = no such curve, though single readings can be large or run the other way; tested in HEK293T cells; further: on the % scale 0 is the no-effect control and ±100 the full control effect; nearly all actives have a fitted effect of over 45% in size; luciferase light after 4 h
Marburg entry inh = qHTS for inhibitors of binding or entry into cells for Marburg Virus; Marburg virus pseudotyped entry inhibition, cell reporter; control for the full effect not named in the record; about a third of the inactives were read at about 46 µM; Potency, µM (doses to about 37.8 µM), for the others: at the highest dose activity change, negative = inhibition, most hits filed as inhibitors; 1.8% of 300,000 active; AID 540276, 2011; active = well fitted inhibition curve with a large enough effect; inconclusive = small, poorly fitted or top-dose-only effect, or effect the other way; inactive = flat fitted curve, though single readings scatter; tested in HEK293 cells; about a fifth of its hits are not listed in these tables; further: on the % scale 0 is the no-effect control and ±100 the full control effect; luciferase read-out
Cruzain Triton = qHTS Assay for Promiscuous and Specific Inhibitors of Cruzain (with detergent); Cruzipain (Trypanosoma cruzi), P25779; purified cruzain, Z-FR-AMC fluorescence, 0.01% Triton; Potency, µM, for inactives: max response, negative = inhibition, actives largely listed as inhibitors; 0.43% of 200,000 active;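 further: plate controls were neutral wells for no effect and buffer without enzyme for full effect; nearly all actives have a fitted effect of over 40% in size; top concentration of the series not given in the record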
Target sequence (P25779 123-467 limits assumed): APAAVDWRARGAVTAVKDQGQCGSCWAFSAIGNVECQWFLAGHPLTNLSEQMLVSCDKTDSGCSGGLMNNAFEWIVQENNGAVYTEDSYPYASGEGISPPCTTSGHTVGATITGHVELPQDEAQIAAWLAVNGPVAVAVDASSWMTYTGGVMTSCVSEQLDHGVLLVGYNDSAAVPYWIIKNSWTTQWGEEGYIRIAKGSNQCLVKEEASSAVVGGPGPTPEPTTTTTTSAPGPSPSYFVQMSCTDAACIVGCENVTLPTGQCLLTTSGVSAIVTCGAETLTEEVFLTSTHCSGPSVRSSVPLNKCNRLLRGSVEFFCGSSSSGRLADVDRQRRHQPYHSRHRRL
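Enzyme 1.5 nM, Z-FR-AMC 2 uM, NaOAc 100 mM pH 5.5, DTT 5 mM, Triton X-100 0.01%; 15 min RT compound preincubation; kinetic ex360/em450, 60 s delta.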
Cruzain noTriton = qHTS Assay for Promiscuous and Specific Inhibitors of Cruzain (without detergent) | purified cruzain, Z-FR-AMC fluorescence, no detergent | Potency, µM, inactives show max response, negative = inhibition, most hits filed as inhibitors | 2.3% of 200,000 active;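 further: plate controls were enzyme without inhibitor for no effect and buffer without enzyme for full effect; nearly all actives have a fitted effect of over 40% in size; top concentration of the series not given in the record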
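Detergent-free condition (0.00005% Triton X-100) in acetate buffer pH 5.5 with DTT. 1.5 nM enzyme and compound were pre-mixed 15 min, then 2 uM Z-FR-AMC substrate added; reaction progress from fluorescence change between first and third reads (60 s).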
Starred values were filed as active, the others as inactive; ? = inconclusive; · = not tested or not shown; & = joins results of further samples; [ ] = dose if it differs, or a comment. Unless noted, the call rests on the fitted dose curve; in most records, active means well fitted curve in the direction sought with a large enough effect; inconclusive means small, poorly fitted or top-dose-only effect, or another doubt; inactive means no such curve, though single readings can be large; an effect the other way counts as inactive or inconclusive. Potency means the concentration at half of the fitted maximal effect.

Order of values – Lassa entry inh | SARS PLP yeast | RE007 growth inh | NS1 inh | StopGo reporter | Marburg entry inh | Cruzain Triton | Cruzain noTriton
1) Cc1cc(CNC(=O)C(C)Cc2ccccc2)nn1C (configuration not stated)
  0% | -7% | -7% | -8% | -2% | 10% | 0.6%&6.1% | 3%&-3%
2) COc1ccc(/C=C/c2nnc(NC(=O)CSc3ccc(Cl)cc3)s2)cc1
  -21% | -10% | -14% | 3% | -1% | -7%&-7% | -1.3% | 10µM*
3) CCOc1ccccc1NC(=O)CC1Nc2ccccc2NC1=O (configuration not stated)
  16% | 22% | 5% | ? | 0% | ? | -9.3% | ?
4) O=C1OC(Cc2ccncc2)C(O)=C1C1=NCCCN1 (configuration not stated)
  ? | 15% | -5% | 27% | 5% | 21% | 0.8% | 6%
5) COC(C(=O)Nc1cc([N+](=O)[O-])ccc1C)c1ccccc1 (configuration not stated)
  -1%[46.1 µM] | 1% | -16% | -1% | -14% | -16%[46.1 µM] | · | ·
6) CCOC(=O)CCc1c(C)c2ccc(OCC(=O)N(CC)CC)c(C)c2oc1=O
  13% | -4% | 2% | -9% | -24% | 13% | -7.2% | 8%
7) COc1ccc(OC)c(S(=O)(=O)Nc2cccc(O)c2)c1
  12% | · | 2% | · | 37%[activator] | 4% | · | ·
8) Cc1ccc(CC2CC(=O)N(Cc3ccco3)C2=O)cc1 (configuration not stated)
  2% | 0% | -17% | -7% | ? | -2% | -5.5% | ?
9) CCOc1cc(C#N)ccc1OCC(=O)NNC(=O)CC1CCS(=O)(=O)C1 (configuration not stated)
  1% | -2% | 1% | · | -4% | -10% | · | ·
10) CCc1nn(CC(=O)NCCc2ccc(Cl)cc2)c(=O)c2cc3ccccc3n12
  · | · | · | · | 0% | -15%[46.1 µM] | -0.5% | -14%
11) O=C(Nc1cccc2cccnc12)c1cccc2c(Br)cccc12
  7%[46.1 µM] | · | · | · | 0% | -1%[46.1 µM] | 2.2% | -2%
12) O=C(C[n+]1ccccc1)N/N=C/c1ccccc1F
  2% | 0% | -11% | · | 14% | 9%[46.1 µM] | · | ·
13) O=C(Nc1cc(-c2nc3ccccc3o2)ccc1Cl)c1sc2c([N+](=O)[O-])cccc2c1Cl
  14%[46.1 µM] | · | · | · | 6% | 14%[46.1 µM] | 0.4% | 5%
14) Cc1onc(-c2c(F)cccc2Cl)c1C(=O)NC(=S)Nc1c(C)n(C)n(-c2ccccc2)c1=O
  0% | -1% | 5% | 5% | -3% | 11%[46.1 µM] | · | ·
15) Cc1nnc(NC(=O)CSc2ncnc3c2cnn3-c2ccccc2C)s1
  0% | -5% | 3% | -7% | · | -20% | 7.4% | -24%
16) Cc1cc(=O)oc2cc(OCC(=O)NC3CCN(Cc4ccccc4)CC3)c(Cl)cc12
  · | -4% | -16% | 5% | -19% | · | · | ·
17) CN1CCC(=O)N([C@H](CN=[N+]=[N-])c2ccccc2)CC1
  · | 5% | -7% | ? | 27% | · | · | ·
18) O=c1c(-c2ccc(Oc3ccccc3)cc2)[n+]([O-])c2ccccc2n1OCc1ccccn1
  -8% | 11% | 7% | 4% | -6% | -10% | -1.2% | 3%
19) CN(CC(=O)NC1CCCCCC1)S(=O)(=O)c1ccc(F)cc1
  ? | -1% | 1% | 9% | 5% | 12% | · | ·
20) COCc1[nH][nH]c(=O)c1C=Nc1ccc(Cl)cc1
  -18% | 7% | 11% | -4% | 0% | -2% | -6.2% | -1%
21) CN(C(=O)Oc1cccc2cccnc12)c1ccccc1
  16% | 5% | 3% | -49% | · | -1% | 1.8% | 1%
22) O=C(O/N=C/c1ccc2c(c1)OCO2)c1ccc([N+](=O)[O-])cc1
  · | 1% | 19% | · | -2% | 1%[46.1 µM] | · | ·
23) Cc1ccc(N(C)C(=O)C2CCN(S(=O)(=O)c3ccc4c(c3)oc(=O)n4C)CC2)cc1
  · | 2% | 17% | 2% | 0% | · | 3.2% | 10%
24) CCc1[nH]nc2c1C1(CCN(C(=O)OCc3ccccc3)CC1)C(C#N)=C(N)O2
  10% | -3% | 4% | -1% | 9% | 15% | -2.0% | -19%
25) N#CC1(c2c(O)nc3n(c2=O)CCCS3)CCCCC1
  1% | 1% | 4% | 5% | 21% | 10% | 0.7% | 4%
26) COc1ccc(NS(=O)(=O)NC(=O)c2c(C)n(C)c3ccccc23)cc1
  · | -1% | 5% | 4% | -1% | · | · | ·
27) CCS(=O)(=O)N1CCC(n2c(C(F)(F)F)nc3cccnc32)CC1
  -8%[46.1 µM] | · | · | · | -14% | · | 0.9% | -12%
28) CCOC(=O)c1c(C)[nH]c(C)c1C(=O)COC(=O)[C@@H](NC(=O)c1ccccc1OCC)C(C)C
  -10% | 1% | 7% | -15% | 11% | ? | -2.8% | ?
29) COc1ccc(CN2CCSCC2)cc1O
  1% | 4% | 9% | 2% | -5% | 16% | 8.1% | -4%
30) Cc1ccc(C)c(NC(=O)c2ncn[nH]2)c1
  11% | -5% | -17% | 7% | · | 12% | 6.1% | -8%

Single records, as listed above. Screens in order: Lassa entry inh | SARS PLP yeast | RE007 growth inh | NS1 inh | StopGo reporter | Marburg entry inh | Cruzain Triton | Cruzain noTriton
COCc1[nH][nH]c(=O)c1C=Nc1ccc(Cl)cc1 is listed as -18% | 7% | 11% | -4% | 0% | -2% | -6.2% | -1%
CCOC(=O)c1c(C)[nH]c(C)c1C(=O)COC(=O)[C@@H](NC(=O)c1ccccc1OCC)C(C)C is listed as -10% | 1% | 7% | -15% | 11% | ? | -2.8% | ?
CN(C(=O)Oc1cccc2cccnc12)c1ccccc1 is listed as 16% | 5% | 3% | -49% | · | -1% | 1.8% | 1%
O=C(O/N=C/c1ccc2c(c1)OCO2)c1ccc([N+](=O)[O-])cc1 is listed as · | 1% | 19% | · | -2% | 1%[46.1 µM] | · | ·

(further entries)
Order of values – Lassa entry inh | SARS PLP yeast | RE007 growth inh | NS1 inh | StopGo reporter | Marburg entry inh | Cruzain Triton | Cruzain noTriton
31) O=C(NC(Cc1ccccc1)C(=O)O)C1CCN(S(=O)(=O)c2cccc(C(F)(F)F)c2)CC1 (configuration not stated)
  ? | 1% | -10% | 9% | 10% | 0% | · | ·
32) O=C(NCc1ccncc1)C(=O)NCC1OCCN1S(=O)(=O)c1cc(F)ccc1F (configuration not stated)
  ? | · | -7% | · | -5% | 18% | · | ·
33) CN(C)Cc1c(O)ccc2[nH]cnc12
  8% | 0% | -13% | ? | -13% | 0% | 4.8% | -4%
34) COC(=O)c1ccccc1NC(=O)CSc1nc(-c2ccccc2)cc(C(F)(F)F)n1
  0%[46.1 µM] | · | · | · | -2% | -4%[46.1 µM] | -8.4% | -4%
35) CCN(CC)S(=O)(=O)c1ccc2c(c1)nc(CCC(=O)OCc1c(C)noc1C)n2C
  11% | 1% | -11% | -1% | 21% | ? | 2.6% | 10%
36) COc1cc(/C=N/O)cc(Br)c1OCc1cccc(Cl)c1
  -17% | -40% | 10µM* | -67% | -1% | -30% | -10% | 1%
37) CCOc1ccc(OCC)c(NC(=O)c2csc3c2CCCC3)c1
  · | · | · | · | -7% | -7%[46.1 µM] | 0.9% | 0%
38) Cc1c(Cl)cccc1NC(=O)c1ncoc1-c1ccco1
  ? | · | · | · | 0% | · | -0.3% | -29%
39) O=C(N/N=C1\CC2CC=CC12)c1ccc(Br)cc1 (configuration not stated)
  4% | -2% | -5% | · | 31%[activator] | 9% | · | ·
40) CC(C)(C)NC(=O)C(c1ccccc1)N(C(=O)c1csnn1)C1CC1 (configuration not stated)
  12% | -32% | 0% | -5% | 4% | -15%[46.1 µM] | -4.0% | 3%
41) CC(C)(C)C(=O)Cn1c(=O)n(CC2CCCO2)c(=O)c2ccccc21 (configuration not stated)
  -2% | -47% | 4% | 2% | 0% | -3% | -1.3% | 9%
42) O=C(O)c1ccc(N=c2oc3cc(O)ccc3cc2C(=O)NCc2ccccc2)cc1
  8% | -23% | ? | · | 3% | -2% | · | ·
43) CCc1nc(NC(C)(C)C)c2cnn(-c3ccccc3)c2n1
  -24%[46.1 µM] | 2% | ? | -2% | 0% | -25%[46.1 µM] | · | ·
44) COc1ccc(Br)cc1CNC(=O)Nc1cccs1
  1% | -5% | -4% | -5% | 44%[activator] | ? | -22% | ?
45) Cc1ccc(NC(=O)Nc2ccc(S(N)(=O)=O)cc2)cc1
  4% | 2% | -15% | · | 21% | ? | · | ·
46) COc1ccc(S(=O)(=O)N2CCC(Oc3ccc(-n4cnnn4)cc3)CC2)cc1OC
  -2%[46.1 µM] | · | · | · | -29% | -18%[46.1 µM] | -3.0% | ?
47) O=C(N/N=C/c1ccc(Br)o1)c1cncc(Br)c1
  -4% | 13% | 5% | 3% | 5% | -1% | -8.5% | 7%
48) O=C(COc1ccc2ccc(=O)oc2c1)c1ccccc1
  28% | 1% | 2% | -2% | 56%[activator] | 15% | · | ·
49) COC(=O)[C@H](CCSC)NC(=O)Cn1cnc2c(NCc3ccccc3)ncnc21
  · | 25% | 8% | · | -12% | 9% | · | ·
50) Cc1c(C)c2ccc(OCC(=O)NCCN3CCOCC3)c(C)c2oc1=O
  · | 1% | -4% | 9% | -8% | · | · | ·
51) Cc1cccc(NC(=O)CSCC(=O)Nc2cc(Cl)ccc2N2CCN(C)CC2)c1
  -23%[46.1 µM] | -2% | -7% | 2% | -15% | ? | · | ·
52) CCc1ccc(Nc2n[n+](-c3ccccc3)c(-c3ccc(N(CC)CC)cc3)s2)cc1
  · | -6% | -1% | 5% | ? | · | · | ·
